# gsp antagonist – antagonists of gsp mutant (McCune-Albright syndrome); gsp-mutant cells, cAMP HTRF, 30 min; control for the full effect not named in the record; Potency, µM (series often up to 76.9 µM), for inactives: at the highest dose activity change, negative = inhibition, actives largely listed as inhibitors; 340,000 tested, 0.4% active; AID 624288; active = falling curve of any shape with a large fitted effect; inconclusive = falling curve, mostly with a smaller effect; inactive = flat or rising curve; cell line not stated here;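 note: intracellular cAMP measured with PDE inhibitor Ro 20-1724 present during compound exposure; potency is the fitted concentration of half-maximal effect; % is set by controls: 0 for no effect and ±100 for the full control effect; nearly all actives have a fitted effect of over 65% in size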
#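 Cells, 2000/well, grown 16–24 h in DMEM 10% FBS with 0.5 mg/ml G418, then compounds plus […] (300 uM addition stock), 30 min at 37C. cAMP read by HTRF (cAMP-d2 and anti-cAMP antibody-K in lysis buffer) after 30 min RT.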
# gsp ag – agonists of gsp mutant (McCune-Albright syndrome); gsp mutant cells, cAMP HTRF, 30 min; control for the full effect not named in the record; Potency, µM (series often up to 76.9 µM), without a hit: top-dose activation (cAMP increase), hits mostly activators; 340,000 tested, 0.13% active; AID 624287; active = well fitted activation curve with a large enough effect; inconclusive = small, poorly fitted or top-dose-only effect, or another doubt; inactive = no such curve, though single readings can be large or run the other way; cell line not stated here;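 note: phosphodiesterase inhibitor Ro 20-1724 added with compounds to block cAMP breakdown; potency is the fitted concentration of half-maximal effect; nearly all actives have a fitted effect of over 60% in size; about a fifth of the inactives were tested at one dose only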
#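 Cells stably selected in G418 were plated at 2000/well, grown 16-24 hr, then given compounds in DMSO with the PDE inhibitor […] (300 uM solution added) for 30 min at 37C; cAMP was read by HTRF.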
# TRPML1 agonist – agonists of human TRPML1 channel; TRPML1-expressing cells, Ca2+ dye fluorescence, FDSS; host cell line not named in the record; reference of the full effect not given here; Q9GZU1; activation, % (test concentration not listed); 410,000 tested, 0.12% active; AID 624414; in the data active = activation above about 50%; inconclusive = about 30% to 50%; inactive = below about 30%; note: 0% is about no effect; the text of the record puts the active cut at 80%
# Target sequence (Q9GZU1 whole entry, looked up): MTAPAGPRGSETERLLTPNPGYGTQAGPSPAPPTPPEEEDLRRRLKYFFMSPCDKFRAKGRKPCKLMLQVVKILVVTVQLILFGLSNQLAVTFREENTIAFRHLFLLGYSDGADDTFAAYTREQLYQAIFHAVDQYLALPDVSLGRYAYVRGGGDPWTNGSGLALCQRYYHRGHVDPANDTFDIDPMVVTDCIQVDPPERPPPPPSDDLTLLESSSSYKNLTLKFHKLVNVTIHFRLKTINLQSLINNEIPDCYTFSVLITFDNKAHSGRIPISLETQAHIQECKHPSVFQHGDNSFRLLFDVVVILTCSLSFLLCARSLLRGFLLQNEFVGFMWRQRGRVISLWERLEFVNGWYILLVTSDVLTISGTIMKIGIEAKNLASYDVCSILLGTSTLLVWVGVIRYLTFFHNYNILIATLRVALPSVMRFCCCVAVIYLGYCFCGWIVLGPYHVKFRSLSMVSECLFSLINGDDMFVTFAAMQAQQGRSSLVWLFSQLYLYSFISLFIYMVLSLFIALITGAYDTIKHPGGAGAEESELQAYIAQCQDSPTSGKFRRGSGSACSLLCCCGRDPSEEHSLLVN
#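 Tetracycline-induced TRPML1-DL cells are seeded and incubated overnight before loading with a no-wash Ca2+ dye and quencher. Agonist activity is taken from the 110 s fluorescence read following compound pin-transfer on an FDSS, before EC80 54-4 challenge.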
# Menin-MLL FL inh – displaces fluorescein MLL peptide from human menin; Fluorescence polarization, fluorescein-MLL peptide displacement from menin; FP activity change, % at 61.4 µM; 290,000 tested, under 10 active; AID 1766; inconclusive = falling polarisation curve, or a change in total fluorescence; inactive = total fluorescence flat and polarisation flat or rising; no compound was filed as active; the % refers to the polarisation; negative = inhibition;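 note: % of control where 0% means no effect; inhibitors lower the polarisation; unlabelled MLL peptide was the positive control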
# TRPML1 blocker – human mucolipin-1 channel inhibition; Q9GZU1; TRPML1-inducible cells, Ca2+ dye fluorescence, FDSS; hits give low values; inhibition of EC80 agonist-evoked calcium signal; activity change, negative = inhibition, % (test concentration not listed); 390,000 tested, 0.02% active; in the data active means activity change below about -50%; inconclusive means about -30% to -50%; inactive means above about -30%;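 note: stimulus is agonist 54-4 at its EC80 concentration; % is set by controls: 0 for no effect and ±100 for the full control effect; compound concentration not given in the record; the text of the record puts the active cut at -80%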
#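 Calcium fluorescence in TRPML1-DL cells induced overnight with Tet: a 110 s read after compound pin addition, then a 110 s antagonist read after challenge with 54-4 at 4 uM final (EC80).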
# ClpP mod – qHTS Assay for Activators of ClpP | purified B. subtilis ClpP, FRET peptide cleavage, 20 min | Potency, µM (doses to about 57.5 µM), for the others: at the highest dose activity change, negative = active | 340,000 tested, 1.9% active | AID 651965, 2013; active = well fitted falling curve with a large enough effect; inconclusive = small, poorly fitted or top-dose-only effect; inactive = no such curve, though single readings can be large or run the other way; note: potency is the fitted concentration of half-maximal effect; the source files actives as falling curves though it sought activators and does not explain the sign; nearly all actives have a fitted effect of over 65% in size; many hits overshoot -100%
# Target sequence (P80244 whole entry, looked up): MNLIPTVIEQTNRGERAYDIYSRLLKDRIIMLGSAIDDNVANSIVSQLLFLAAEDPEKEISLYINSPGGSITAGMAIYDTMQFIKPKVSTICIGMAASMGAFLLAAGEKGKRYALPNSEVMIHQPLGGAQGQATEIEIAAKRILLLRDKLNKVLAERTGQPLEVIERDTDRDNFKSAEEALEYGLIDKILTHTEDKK
#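 ClpP 10 microg/mL final, pH 8 Tris/KCl buffer with BSA, glycerol, Tween-20; compound pinned in; FRET-FV substrate; RT 20 min; Ex320/Em430; ΔFRET vs ADEP 5.8 microM, DMSO, no enzyme.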
# * = called active by the depositor; ? = inconclusive; · = no result given; & = joins results of further samples; [ ] = another dose, or the depositor's remark. Outcome played no part in choosing rows; about 2.1% have a hit in one of these screens.
SMILES,gsp antagonist,gsp ag,TRPML1 agonist,Menin-MLL FL inh,TRPML1 blocker,ClpP mod
Cc1nc(-c2cccc(NS(=O)(=O)c3cccc4ccccc34)c2)cs1,-5%,22%,1.6,1.0,-10,-0.8%
O=C(CSCc1ccc(Br)cc1)Nc1ccc(S(=O)(=O)N2CCOCC2)cc1,-9%,-25%,-0.2,-6.5,0,1.4%
COc1ccc(C(=O)c2cn(Cc3ccccc3OC)c3cc4c(cc3c2=O)OCO4)cc1,·,·,0.8,·,7,-0.3%
Cc1nc(CN2CCN(Cc3nc(C(c4ccccc4)c4ccccc4)no3)CC2)cs1,-1%,17%[15.4 µM],1.1,3.2,14,·
O=C(NCC(c1cccnc1)N1CCOCC1)C1CCCCC1 (stereo unspecified),14%,-2%,0.2,4.9,-1,-1.4%
COc1ccc(C(=O)OCC(=O)Nc2c(C)cccc2C)cc1,9%,-2%,-0.3,-6.2,9,·
COc1ccc(C(=O)Oc2c(OC)cc(C(=S)N3CCOCC3)cc2OC)cc1,-7%,?,1.0,0.5,12,0.4%
COc1ccc(C2CC(O)(c3ccccc3)Oc3cc(OC)ccc32)cc1 (stereo unspecified),-11%,·,1.3&1.7,-0.8&2.3,52&-12,-3.0%
CCCCN(C(=O)CSc1nnnn1-c1ccccc1OC)C1CCS(=O)(=O)C1 (stereo unspecified),-13%,-24%,-0.8,·,-2,-2.6%
CN(CC(=O)Nc1cccc(Cl)c1)S(=O)(=O)c1ccc2[nH]c3c(c2c1)CCCC3,·,·,5.4,·,35,-14%
Cc1ccc(-c2c(C3C4C=CCCC4(C)C(=O)N3Cc3ccccc3)ccc3ccccc23)cc1 (stereo unspecified),·,·,1.8,0.4,40,·
Cn1c(CSCc2ccc(F)cc2)n[nH]c1=S,-8%,-14%,-0.7,0.8,-7,-1.5%
C[C@H](CO)N1C[C@H](C)[C@@H](CN(C)C(=O)Nc2cc(F)ccc2F)Oc2ncc(-c3cccc(F)c3)cc2C1=O,·,-6%,-0.2,·,-5,-7.1%
N#C/C(=C(/O)CSc1ccccn1)c1nc2ccccc2s1,-12%,26%,1.6,6.8,3,0.1%
O=C(/C=C/c1ccc(F)cc1)N1CCCc2ccccc21,-3%,-1%[15.4 µM],-0.5,-1.9,-11,·
NC(=O)c1ccc(NC(=O)COc2cccc3c2CCNC3=O)cc1,11%,-39%[inhibitor],0.3,·,41,-11%
CN(CC(=O)NCCc1ccc(S(N)(=O)=O)cc1)CC(=O)Nc1ccc(Cl)cc1,4%,-20%,0.8,·,17,1.6%
COc1cc(CNn2cnnc2)ccc1OCC(=O)NC1CCCCC1,11%,8%,-0.2,-1.4,-4,2.6%
C[C@H](CO)N1C[C@H](C)[C@@H](CN(C)C(=O)Nc2ccc3c(c2)OCO3)Oc2c(NS(=O)(=O)c3cn(C)cn3)cccc2C1=O,1%,·,-0.3,·,2,-0.2%
COc1ccccc1N(C)S(=O)(=O)c1ccc(C(=O)N2CCCc3ccccc32)cc1,?,-4%,0.2,0.2,14,·
CSc1ccccc1NC(=S)Nc1cc(C)cc(C)c1,-2%,-16%,-0.5,-7.8,-24,-1.3%
Cc1ccccc1C(=O)N/N=C/c1cccc2ccccc12,-9%,-22%,·,3.2,·,-3.3%
O=C(NCc1ccccc1F)c1ccc(CN2CC(=O)N3CCCCC3C2=O)cc1 (stereo unspecified),·,·,1.7,·,42,2.0%
CC1(C)O[C@@H]2C[C@H]3[C@@H]4CCC5=CC(=O)CC[C@]5(C)[C@@]4(F)[C@@H](O)C[C@]3(C)[C@]2(C(=O)CCl)O1,-21%,·,-1.0,·,8,0.3%
CCC(C)Sc1nc2c(c(=O)[nH]c(=O)n2C)n1CC(O)COc1ccccc1C (stereo unspecified),16%,-48%[inhibitor],3.9,-0.2,14,-0.8%
Cc1c(C(c2cccc(Br)c2)c2c(C)n(C)n(-c3ccccc3)c2=O)c(=O)n(-c2ccccc2)n1C,-3%,6%,0.5,-8.0,-8,-1.5%
OC[C@H]1O[C@H](OCc2ccccc2)[C@H](O[C@@H]2OC[C@@H](O)[C@H](O)[C@H]2O)[C@@H](O)[C@@H]1O,5%,-12%,0.0,·,0,1.1%
CN(/N=C/c1cccnc1)c1cnc2ccccc2n1,-4%,1%[15.4 µM],-1.0,-2.3,-6,-1.7%
CN1C(=O)[C@H]2[C@@H](C3CC3)N3C(=O)CN(Cc4ccccc4)C(=O)[C@@]3(C)[C@H]2C1=O,10%,?,-0.7,0.2,4,0.2%
CC1CCCCC1NC(=O)c1cc(S(=O)(=O)N2CCOCC2)ccc1Cl (stereo unspecified),10%,-2%,0.6,·,24,·
COc1ccc(N=[N+]([O-])c2ccc(OC)cc2)cc1,-1%,6%,-0.8,·,53,·
Cc1ccc(S(=O)(=O)OCCC2=CC(=O)CCN2Cc2ccccc2)cc1,-1%,20%,0.9,·,-2,1.6%
Fc1ccc(N2CCN(c3ncnc4c3nc3n4CCCCC3)CC2)cc1,·,·,0.0,·,-9,-15%
N#Cc1cc(S(=O)(=O)N2CCOCC2)ccc1N1CCOCC1,5%,-1%,0.4,·,-5,-28%
CC1=CC=CC2=N/C(=N\S(=O)(=O)c3ccc(F)cc3F)c3ccccc3CN12,-5%,2%,0.3,-2.7,12,·
Cc1nc(C)c(-c2csc(Nc3ccc(S(N)(=O)=O)cc3)n2)s1,-21%,-29%[15.4 µM],0.2,0.3,-4,-5.5%
CC(=O)NC1(C(F)(F)F)NC(=O)N(CCc2ccccc2)C1=O (stereo unspecified),15%,-21%,0.0,6.6,-3,0.3%
CCN(CC(=O)Nc1c(F)cccc1F)C(=O)CSc1nc(C)cc(C)n1,22%,6%[15.4 µM],0.0,·,-3,1.7%
CC(C)(O)C#Cc1ccc(CN2CCCC(CNC(=O)c3ccco3)C2)cc1 (stereo unspecified),8%,8%[15.4 µM],0.3,·,21,-2.6%
CCOC(=O)/C(=N\Nc1ccccc1Cl)N1CCN(C)CC1,-8%,?,-0.4,-0.4,3,0.1%
COc1cc(C)c(NC(=O)COc2ccc3c(c2)CCC3)cc1OC,?,-12%,0.7,·,16,2.0%
Cc1cc(C)cc(NC(=O)CN2CCN(c3ccccc3)CC2)c1,-1%,23%,4.6,-17,3,-0.5%
COc1ccc(-c2nc(CN3CCCCC3c3cccnc3)c(C)o2)c(F)c1 (stereo unspecified),-1%,8%,0.8,7.2,6,·
Cc1ccccc1OCC(=O)Nc1ccccc1NC(=O)c1ccco1,-19%,16%[15.4 µM],0.1,-9.8,4,·
CCN1C(c2ccccc2)=C(c2ccccc2)S/C1=C\C=C1/SC(=S)N(C)C1=O,0%,15%,0.2,·,3,1.3%
CSc1ccc(CCNC(=O)C2CCCN(S(=O)(=O)N(C)c3ccc(F)cc3)C2)cc1 (stereo unspecified),·,·,-0.4,·,13,-1.9%
Cc1[nH]c(-c2ccc3c(c2)OCO3)nc1C(=O)O,-3%,-72%[inhibitor],0.0,-0.7,-5,3.8%
O=C(NNC(=O)c1ccccc1-c1ccccc1C(=O)O)c1ccccc1,7%,-34%[inhibitor],-0.2,0.4,3,·

# 3 entries from above, sorted by the value under gsp ag, rising:
SMILES | gsp antagonist | gsp ag | Menin-MLL FL inh | TRPML1 blocker
COc1ccc(-c2nc(CN3CCCCC3c3cccnc3)c(C)o2)c(F)c1 (stereo unspecified) | -1% | 8% | 7.2 | 6
CCN1C(c2ccccc2)=C(c2ccccc2)S/C1=C\C=C1/SC(=S)N(C)C1=O | 0% | 15% | · | 3
Cc1cc(C)cc(NC(=O)CN2CCN(c3ccccc3)CC2)c1 | -1% | 23% | -17 | 3

# Continued:
SMILES,gsp antagonist,gsp ag,TRPML1 agonist,Menin-MLL FL inh,TRPML1 blocker,ClpP mod
O=C(CSc1nnc(-c2cccnc2)n1Cc1ccccc1)NCc1ccco1,1%,-5%,3.9,2.4,-4,0.3%
C(=NOCc1ccccc1)c1ccncc1,10%,-10%,-0.8,·,0,·
CCN1C(=O)C(CC(=O)Nc2ccc(F)cc2)N(CCc2ccc(OC)cc2)C1=S (stereo unspecified),-3%,9%[15.4 µM],1.2,-1.2,-11,·
CC(C)(C)Nc1cccccc1=O,4%,-1%,-0.8,2.1,1,0.0%
CCOC(=O)C1C(c2ccc(OC)cc2)N(C)OC1(O)C(F)(F)F (stereo unspecified),-3%,-4%[15.4 µM],-0.5,-0.9,4,·
COCCCN(C(C)=O)c1nc(-c2ccc(OC)cc2)cs1,-6%,-17%,0.8,?,10,5.2%
CC(C)Cn1c(N)c(C(=O)CSc2nc3ncc(Cl)cc3[nH]2)c(=O)n(C)c1=O,-29%,1%[15.4 µM],0.9,·,-2,-5.4%
COc1ccc(/C=N/NC(=O)c2ccc3c(c2)OCCO3)cc1[N+](=O)[O-],9%,-11%,-0.3,1.7,8,-3.8%
O=C1[C@@H]2CSCN2C(=O)CN1Cc1ccc(F)cc1,15%,23%[15.4 µM],1.6,-3.7,24,·
COc1cc(CN2CCN(c3ncccn3)CC2)cc(OC)c1,3%,5%,·,-1.4,·,-3.4%
COC(=O)C1=C(C)NC(C)=C(C(=O)OC)C1c1ccco1,-10%,-5%,1.3,5.0,-26,-11%
O=C(/C=C/c1ccc(S(=O)(=O)N2CCOCC2)cc1)Nc1ccc(F)c(F)c1F,-6%,-2%,2.3,·,18,-5.3%
O=C(COc1ccc([N+](=O)[O-])cc1)Nc1nc(-c2ccccn2)cs1,-8%,63%[15.4 µM],-0.1,·,-16,·
CCCN(CC(=O)Nc1ccccc1C)C(=O)c1sc2ccccc2c1Cl,-11%,4%,1.6,·,-5,-0.4%
COc1cc(O)c(C(CC(=O)N2CCN(c3ccccc3)CC2)c2ccc3c(c2)OCO3)c(OC)c1 (stereo unspecified),-12%,·,3.6&1.2,-3.0&-0.8,3&-6,-0.7%
Cc1sc(NC(=O)CSc2nnc(COc3ccccc3)n2C)c(C#N)c1C,8%,6%,4.6,3.7,26,0.9%
CCOC(=O)CN(C(=O)CNC(=O)c1cccs1)C(C(=O)NC1CCCCC1)c1cccs1 (stereo unspecified),-1%,?,-0.8,3.8,5,1.4%
COc1ccc(/C=N/NC(=O)c2cc(-c3ccccc3)nc3ccccc23)cc1O,-2%,-13%,0.9,-1.2,15,·
O=C(Nc1nc2c(F)cc(F)cc2s1)c1ccc2c(c1)OCCO2,·,·,-0.3,·,0,-12%
COc1ccc(-c2cn3cccnc3n2)cc1NS(=O)(=O)c1ccccc1,7%,18%,-0.7,0.9,-17,·
CC(C)(C)C(=O)CSc1nc2ncc(Br)cc2[nH]1,1%,17%,0.4,4.1,10,0.7%
Cc1cccc2c1-c1sc(C(=O)N3CCc4ccccc4C3)cc1CO2,-23%,7%,-1.3,0.3,-8,4.1%

# Bioassay records from PubChem BioAssay.
